Screening data (PubChem BioAssay)
HIV TAR-Tat: HIV-1 TAR-Tat binding disruption; HIV-1 TAR RNA, Tat peptide displacement FRET; active compounds read high; z-score (no concentration beside the values); 0.6% of 100,000 active;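 further: score is relative to mean and SD of negative controls; some compounds called inactive have numbers as strong as hits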
CDC25B CDK2 inh: human CDC25B-CDK2/CyclinA binding inhibition; 0.72% of 94,000 active; AID 1259370; P30305+P24941; HTRF CDC25B-CDK2/CyclinA binding, anti-His/anti-Flag; active compounds read high; z-score (test concentration not listed);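 further: score is relative to mean and SD of negative controls; strong numbers were not always called active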
* hit, by the source's call; . = not tested or not shown.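 How the source made its calls: active means z-score from 3 up in half or more of its runs; inactive means the rest.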

Order of results – HIV TAR-Tat	CDC25B CDK2 inh
- C=CCn1c(CCNC(=O)CCC(C)O)nc2ccccc21 (stereo not drawn)
→ 0.33	-0.45
- COc1cccc(-c2cc(=O)n3[nH]c(SCc4ccccc4)nc3n2)c1
→ -0.82	1.8
- CCN(CC)CCCNC(=O)Nc1cnc2ccccn2c1=O
→ 0.26	-1.9
- CCCCCC(=O)n1nc(-c2ccc(C)c(C)c2)nc1N
→ -1.1	-1.1
- CSc1nnc2c(n1)OC(c1c(F)cccc1Cl)N(C(C)=O)c1ccccc1-2 (stereo not drawn)
→ 1.3	-0.63
- CCCCn1c(O)c(C2=Nc3ccccc3SC(c3ccc(O)cc3)C2)c(=O)[nH]c1=O (stereo not drawn)
→ 1.6	-0.71
- Cc1ccc(C)c(N(C)C(=O)c2sc3nc4n(c(=O)c3c2C)CCCCC4)c1
→ 1.7	.
- Cc1ccc(-c2nnc3n2N=C(c2ccccc2)CS3)cc1
→ 0.73	-0.54
- COc1ccc(-c2onc(C)c2C)cc1S(=O)(=O)NC1CCCC1
→ 1.4	.
- COc1ccc(/C=C/c2nc(-c3ccccc3O)n(-c3ccccc3)n2)cc1OC
→ .	0.14
- COCCCN1C(=S)NC2c3ccccc3OC1(C)C2C(=O)Nc1ccc(OC)cc1 (stereo not drawn)
→ .	0.57
- O=C(Nc1c(F)cc(F)cc1Br)C1CCCN(c2nnc(-n3cccc3)s2)C1 (stereo not drawn)
→ 0.49	.
- COc1ccc(OC)c(NC(=O)c2cn3c4c(ccc(Cl)c4c2=O)OCC3)c1
→ 0.57	.
- O=C(Cn1cnc(S(=O)(=O)N2CCCCC2)c1)Nc1ccc(Br)cc1F
→ -0.43	.
- Cn1c(C(=O)Nc2ccc(F)cc2)c(N2CCCC2=O)c2cc(F)ccc21
→ 0.56	.
- O=C(COc1ccccc1)Nc1ccccc1OCc1cc(=O)n2ccccc2n1
→ 0.73	.
- O=c1cc(O)c2ccc(Cl)cc2[nH]1
→ .	0.26
- O=C(Nn1c(=S)[nH]c2ccccc2c1=O)c1ccco1
→ .	-2.3
- COC(=O)Nc1c(-c2ccccc2)nc2ccc(Cl)cn12
→ 0.13	-1.1
- COc1cc(OC)c(NC(=O)c2c(N3CCCC3=O)c3cc(F)ccc3n2C)cc1Cl
→ 1.1	.
- Cc1ccc(OCc2nn3c(Cc4ccccc4)nnc3s2)cc1
→ 0.18	-0.47
- COc1ccc2c(=O)c(-c3ccc(Cl)cc3)c(C(F)(F)F)oc2c1
→ 0.04	-10
- O=C(Nc1ccc2[nH]c(=O)sc2c1)NC1CCCC1
→ 1.8	1.1
- CCN(CC)c1ccc2nnc(CCC(=O)N3CCN(c4ccc(F)cc4)CC3)n2n1
→ -0.37	.
- CC(C)C(=O)N1CCC(c2nc3ccccc3o2)CC1
→ 1.4	0.92
- COc1cccc(-c2noc(-c3ccc(Cl)cc3)n2)c1
→ 0.82	-2.9
- O=C(O)c1ccc(Oc2ccc3c(c2)C(=O)N(c2ccccn2)C3=O)cc1
→ .	-2.2
- Cc1ccc(-c2nnnn2-c2ccc(C)cc2)cc1
→ .	-2.3
- CCOC(=O)c1ccc(NC(=S)Nc2ncccc2C)cc1
→ .	-1.4
- CCn1c(=O)c2sccc2n2c(CCCC(=O)N3CCC(N4CCCCC4)CC3)nnc12
→ -0.31	.
- O=C(Nc1cccc2c1CCCC2)N1CC=C(c2c[nH]c3ccccc23)CC1
→ -6.3	.
- COc1cccc(OCCCCCCN2CCOCC2)c1
→ -0.53	-0.95
- CSc1ncc(C(=O)Nc2cc(F)ccc2F)c(C)n1
→ -0.44	.
- COc1ccc(C2CC(=O)C3=C(C2)Nc2ncnn2C3c2ccc(Cl)cc2)cc1 (stereo not drawn)
→ -0.11	0.08
- COc1ccc(NC(=O)C2CCCN2c2nnc(N3CCCC3=O)s2)c(OC)c1 (stereo not drawn)
→ 2.4	-0.68
- O=C(C1CC1)N1CCN(c2ncccn2)CC1
→ 0.68	-0.54
- COC(=O)C1=C(C)N=C2SCCC(=O)N2C1c1ccc(OC(C)=O)cc1 (stereo not drawn)
→ -0.02	-0.86
- O=C(CCCc1nc(-c2cccs2)no1)Nc1ccc(Cl)cc1
→ 0.88	-0.57
- CC(C)SCC(=O)NCC(=O)O
→ .	-1.4
- CC(=O)Nc1cccc(Nc2nc3ccccc3n3cnnc23)c1
→ .	-1.9
- CS(=O)(=O)N1N=C(c2ccco2)CC1c1cn(-c2ccccc2)nc1-c1cccs1 (stereo not drawn)
→ -4.1	-5.1
- CC(C)(C)C1CCc2nc(N)c3c(=O)oc4ccccc4c3c2C1 (stereo not drawn)
→ 0.98	2
- COc1cccc2c1OC(c1ccncc1)N1N=C(c3cc(C)ccc3O)CC21 (stereo not drawn)
→ -0.6	0.76
- O=C(Nc1ccc(-c2csnn2)cc1)C1CC1
→ .	-2.5
- S=c1[nH][nH]c2nc3ccccc3n12
→ .	-7.7

5 compounds already listed, arranged by SMILES length, highest first.
Order of results – HIV TAR-Tat	CDC25B CDK2 inh
- CS(=O)(=O)N1N=C(c2ccco2)CC1c1cn(-c2ccccc2)nc1-c1cccs1 (stereo not drawn)
→ -4.1	-5.1
- COc1ccc(C2CC(=O)C3=C(C2)Nc2ncnn2C3c2ccc(Cl)cc2)cc1 (stereo not drawn)
→ -0.11	0.08
- O=C(CCCc1nc(-c2cccs2)no1)Nc1ccc(Cl)cc1
→ 0.88	-0.57
- O=C(Nc1ccc(-c2csnn2)cc1)C1CC1
→ .	-2.5
- S=c1[nH][nH]c2nc3ccccc3n12
→ .	-7.7

Further entries follow:
Order of results – HIV TAR-Tat	CDC25B CDK2 inh
- CCN(CC)CCNC(=O)C(C)n1c2ccccc2c2nc(=O)cc(C)n21 (stereo not drawn)
→ 1.1	0.19
- O=C(NCCN1CCCc2ccccc21)C1CCCN(c2ncnc3c2nc2n3CCCCC2)C1 (stereo not drawn)
→ 1.4	.
- C=CCNc1sc(C(=O)OC)c(N)c1C(=O)OC
→ .	-0.05
- COc1ccc(-c2noc(-c3nnn(-c4ccc(OC)c(OC)c4)c3C)n2)cc1OC
→ -0.14	.
- Nc1ccccc1Oc1nc(Br)nn1Cc1ccc(F)cc1
→ 1.8	.
- Cc1sc2ncn(CC(=O)N3CCC(C)CC3)c(=O)c2c1S(=O)(=O)N1CCOCC1
→ .	-0.3
- Cc1nc2ccccc2n1CCc1nc2c3ccccc3nc(SCC(=O)NCc3ccco3)n2n1
→ -0.14	.
- Fc1cccc(Nc2nc(-c3cccnc3)nc3ccccc23)c1
→ .	-6.3
- Cc1cc2c(cc1C)NC(c1nc3ccccc3[nH]1)C1=C(CC(C)(C)CC1=O)N2 (stereo not drawn)
→ -1.4	-1.9
- CCCc1nc2nc(C)cc(Nc3ccc(C)c(F)c3)n2n1
→ -0.49	-0.88
- CSc1ccccc1NC1=NS(=O)(=O)c2ccccc21
→ -0.07	0.67
- O=C1c2cccnc2C(Nc2ccc(Br)cc2)N1Cc1cccs1 (stereo not drawn)
→ -0.63	0.51
- Cc1ccccc1Cn1c(-c2cncs2)nc2ccccc21
→ -0.9	2.6
- CCOc1ccccc1NS(=O)(=O)c1ccc2c(c1)oc(=O)n2C
→ 1.2	-2.6
- O=C(C1CCN(c2ccccc2)C1=O)N1CCOCC1 (stereo not drawn)
→ -1.3	.
- CN1C(=O)c2ccccc2Sc2ccc(NC(=O)N3CCOCC3)cc21
→ 2.2	-1.5
- N#CC(OC(=O)c1ccccc1)c1cccc([N+](=O)[O-])c1 (stereo not drawn)
→ .	-1.1
- COc1ccccc1NC1=C(Cl)C(=O)OC1OC (stereo not drawn)
→ .	-0.33
- Cc1ccn2c(-c3nnco3)c(C)nc2c1
→ .	-2.8
- O=C(NCc1ccc(-c2ccc(F)cc2F)o1)Nc1ccc(Cl)cc1
→ .	-1.8
- Cc1nn2c(=O)cc(COC(=O)Cc3ccccc3)nc2s1
→ -0.88	.
- O=C(NNc1c(Cl)cc(Cl)cc1Cl)NC(=O)c1ccccc1Cl
→ .	-0.46
- COCCN1C(=O)c2oc3cc(C)c(C)cc3c(=O)c2C1c1ccc(OCCC(C)C)c(OC)c1 (stereo not drawn)
→ 2.2	-0.64
- CC1=CCC2(CO)COC(c3ccccc3O)C1C2 (stereo not drawn)
→ 1.5	0.49
- CCCOc1ccc(OCCSc2nc3ccccc3c(=O)[nH]2)cc1
→ .	-2.2
- COc1ccc(OC)c(Nc2nc(Nc3cccc(Cl)c3)c3cnn(C)c3n2)c1
→ 1.4	.
- Cc1nn(CCCC(=O)NC2CCCc3ccccc32)c(=O)c2cc3sccc3n12 (stereo not drawn)
→ 0.55	-0.99
- CC1CN(Cc2ccc3c(c2)OCO3)C(=O)C(=O)N1Cc1ccc2c(c1)OCO2 (stereo not drawn)
→ -0.42	-0.67
- COc1cc(OC)c(-n2c(=O)c3c4c(sc3n(C)c2=O)CN(C(C)=O)CC4)cc1Cl
→ 1.1	-1.4
- Cc1ccc(-n2ccn3c(=O)[nH]nc3c2=O)cc1C
→ 0.01	0.37
- Cc1ccc(S(=O)(=O)NCCc2cn3cccc(C)c3n2)c(C)c1
→ .	-0.79
- O=C(Cn1cc(Cl)cn1)N1CCCC1c1ccco1 (stereo not drawn)
→ 0.7	-1.4
- COc1ccccc1Cn1cc(C(=O)c2ccc(F)cc2)c(=O)c2cc3c(cc21)OCCO3
→ -0.79	-2.4
- Cc1nc([N+](=O)[O-])cn1CC(=O)c1ccc2c(c1)OCCO2
→ .	-1.1
- Cc1cc(C)nc(-n2ncc3c2CC(c2ccccc2C)CC3=O)n1 (stereo not drawn)
→ 0.71	-0.01
- O=C(c1cccs1)N1CCN(Cc2cc(=O)n3ccccc3n2)CC1
→ -0.12	.
- O=S(=O)(Nc1n[nH]c2cccc(Cl)c12)c1ccc(Cl)cc1
→ .	-0.49
- O=S(=O)(Nc1ncn(Cc2ccc(Cl)cc2)n1)c1ccc(F)c(F)c1
→ 0.89	-1.1
- CC(=O)Nc1ccc(S(=O)(=O)[C@H]2CS(=O)(=O)C[C@@H]2N2CCN(c3ccc(F)cc3)CC2)cc1
→ 0.45	-1.8
- CCCN1C=C(OC(=O)c2ccccc2Br)c2ccccc2S1(=O)=O
→ -1.9	-0.7
- CC(=O)O/N=C(/N)c1cnn2c(C(F)(F)F)cc(C(F)(F)F)nc12
→ .	-1.2
- COc1ccc2[nH]c(=O)c(CN(C3CCCCC3)S(=O)(=O)c3ccccc3)cc2c1
→ 0.64	-1.7
- O=C(C1CC1)N1CCc2cc(Br)cc(S(=O)(=O)N3CCC4(CC3)OCCO4)c21
→ .	-0.68
- CCCCNC1=CC(=O)CC(C)(C)C1
→ 1.4	0.08
- COc1cc(-c2cc(C(=O)O)c3cc4c(cc3n2)OCCO4)ccc1O
→ 1.9	2.1
- C=CCNC(=O)CCCc1nc(-c2ccc(C(C)(C)C)cc2)no1
→ -0.12	1
- O=C(Cc1ccc(NC(=O)N2CCSc3ncccc32)cc1)N1CCN(c2ncccn2)CC1
→ 0.12	.
- Cc1ccc(C(C(=O)NC2CCCC2)N(C(=O)c2cnccn2)c2cccs2)cc1 (stereo not drawn)
→ 2.1	-2.6
- N#CC1=C(N)Oc2nc[nH]c(=O)c2C1c1ccccc1Cl (stereo not drawn)
→ .	-2.3
- Cc1ccc(NC(=S)NC(=O)c2ccccc2)cc1NS(C)(=O)=O
→ .	-0.4
- CCOC(=O)c1c(C)[nH]c(C)c1S(=O)(=O)N(C)Cc1cnn(-c2ccccc2)c1
→ 1.4	.
- COCCOC(=O)c1c(C)oc2ccc(NS(=O)(=O)c3cccc4cccnc34)cc12
→ 1.4	-1
- COC(=O)c1cccc(NC(=S)NC(=O)c2csc([N+](=O)[O-])c2)c1
→ .	-1.9
- COC(=O)CSc1nnc(-c2c[nH]c3ccccc23)n1-c1ccc(F)cc1
→ .	-0.07
- CS/C(=N\S(=O)(=O)c1ccccc1)NNC(=O)c1c(-c2c(Cl)cccc2Cl)noc1C
→ .	-3.1
- CCOc1ccc(Oc2coc3cc(O)ccc3c2=O)cc1
→ 0.28	-1.6
- O=C(c1ccccc1)C1CCN(C(=O)CS(=O)(=O)c2ccc(Cl)cc2)CC1
→ .	-2.3
- CNC(C)(C)c1nnnn1-c1c(C)cccc1C
→ 2.1	.
- Cc1ccc(Nc2ncnc3c2cnn3-c2ccc(F)cc2)cc1
→ 0.5	.
- CCCCN(CC)Cc1c(C)[nH]c2c(C)c(C)ccc2c1=O
→ -0.92	0.8

Rewritten as tab-separated lines: part of the list above.
compound	HIV TAR-Tat	CDC25B CDK2 inh
O=C(c1ccccc1)C1CCN(C(=O)CS(=O)(=O)c2ccc(Cl)cc2)CC1	.	-2.3
Cc1ccc(C(C(=O)NC2CCCC2)N(C(=O)c2cnccn2)c2cccs2)cc1 (stereo not drawn)	2.1	-2.6

(list continues)
Order of results – HIV TAR-Tat	CDC25B CDK2 inh
- O=C(Nc1nc(-c2ccccc2)ns1)c1ccc(Br)cc1
→ 0.5	0.04
- CCOC(=O)C1=C(C)C(c2ccc(N(C)C)cc2Cl)NC(=O)N1 (stereo not drawn)
→ .	3.2
- CC(=O)N1c2ccc(S(=O)(=O)N3CCCC3)cc2CC1C(=O)NCCCN1CCN(C)CC1 (stereo not drawn)
→ 1.4	.
- O=C1CC(c2ccccc2)C2=C(CC(c3ccccc3Cl)CC2=O)N1 (stereo not drawn)
→ -1	-0.23
- COc1ccc(Nc2c(-c3ccc4c(c3)CCCC4)c(=O)c2=O)c(OC)c1
→ 0.16	.
- O=C(O)C1CCCN(c2nccc3nc(N4CCOCC4)ncc23)C1 (stereo not drawn)
→ 0.46	1.4
- COc1cnc(CSc2nnnn2C)cc1OCC(=O)N1CCc2ccccc21
→ 2.2	.
- COc1ccc(C(C)=O)c(NC(C)=O)c1
→ .	-0.47
- O=C(CSc1ncc(S(=O)(=O)c2ccc(Br)cc2)c(=O)[nH]1)Nc1ccccc1F
→ 1.9	-1.5
- COc1ccccc1N1C(=O)N(c2cccc(Br)c2)C2CS(=O)(=O)CC21 (stereo not drawn)
→ 0.37	0.3

Record cards, from the list above.
`COc1cnc(CSc2nnnn2C)cc1OCC(=O)N1CCc2ccccc21` across the screens: HIV TAR-Tat = 2.2; CDC25B CDK2 inh = .
`COc1ccc(C(C)=O)c(NC(C)=O)c1` across the screens: HIV TAR-Tat = .; CDC25B CDK2 inh = -0.47
